nsP2pro primary: inhibitors of chikungunya virus nsP2 protease; Q8JUX6; FRET peptide cleavage, nsP2pro, fluorescence 1 h; Potency, µM (doses to about 24.9 µM), inactives show at the top dose activity change, negative = inhibition, most hits filed as inhibitors; hit rate 1.1% among 31,000; active means well fitted inhibition curve with a large enough effect; inconclusive means small, poorly fitted or top-dose-only effect; inactive means no such curve, though single readings can be large or run the other way; further: nearly all actives have a fitted effect of over 60% in size; a reference inhibitor and vehicle were the controls
Target sequence (Q8JUX6 whole entry, looked up): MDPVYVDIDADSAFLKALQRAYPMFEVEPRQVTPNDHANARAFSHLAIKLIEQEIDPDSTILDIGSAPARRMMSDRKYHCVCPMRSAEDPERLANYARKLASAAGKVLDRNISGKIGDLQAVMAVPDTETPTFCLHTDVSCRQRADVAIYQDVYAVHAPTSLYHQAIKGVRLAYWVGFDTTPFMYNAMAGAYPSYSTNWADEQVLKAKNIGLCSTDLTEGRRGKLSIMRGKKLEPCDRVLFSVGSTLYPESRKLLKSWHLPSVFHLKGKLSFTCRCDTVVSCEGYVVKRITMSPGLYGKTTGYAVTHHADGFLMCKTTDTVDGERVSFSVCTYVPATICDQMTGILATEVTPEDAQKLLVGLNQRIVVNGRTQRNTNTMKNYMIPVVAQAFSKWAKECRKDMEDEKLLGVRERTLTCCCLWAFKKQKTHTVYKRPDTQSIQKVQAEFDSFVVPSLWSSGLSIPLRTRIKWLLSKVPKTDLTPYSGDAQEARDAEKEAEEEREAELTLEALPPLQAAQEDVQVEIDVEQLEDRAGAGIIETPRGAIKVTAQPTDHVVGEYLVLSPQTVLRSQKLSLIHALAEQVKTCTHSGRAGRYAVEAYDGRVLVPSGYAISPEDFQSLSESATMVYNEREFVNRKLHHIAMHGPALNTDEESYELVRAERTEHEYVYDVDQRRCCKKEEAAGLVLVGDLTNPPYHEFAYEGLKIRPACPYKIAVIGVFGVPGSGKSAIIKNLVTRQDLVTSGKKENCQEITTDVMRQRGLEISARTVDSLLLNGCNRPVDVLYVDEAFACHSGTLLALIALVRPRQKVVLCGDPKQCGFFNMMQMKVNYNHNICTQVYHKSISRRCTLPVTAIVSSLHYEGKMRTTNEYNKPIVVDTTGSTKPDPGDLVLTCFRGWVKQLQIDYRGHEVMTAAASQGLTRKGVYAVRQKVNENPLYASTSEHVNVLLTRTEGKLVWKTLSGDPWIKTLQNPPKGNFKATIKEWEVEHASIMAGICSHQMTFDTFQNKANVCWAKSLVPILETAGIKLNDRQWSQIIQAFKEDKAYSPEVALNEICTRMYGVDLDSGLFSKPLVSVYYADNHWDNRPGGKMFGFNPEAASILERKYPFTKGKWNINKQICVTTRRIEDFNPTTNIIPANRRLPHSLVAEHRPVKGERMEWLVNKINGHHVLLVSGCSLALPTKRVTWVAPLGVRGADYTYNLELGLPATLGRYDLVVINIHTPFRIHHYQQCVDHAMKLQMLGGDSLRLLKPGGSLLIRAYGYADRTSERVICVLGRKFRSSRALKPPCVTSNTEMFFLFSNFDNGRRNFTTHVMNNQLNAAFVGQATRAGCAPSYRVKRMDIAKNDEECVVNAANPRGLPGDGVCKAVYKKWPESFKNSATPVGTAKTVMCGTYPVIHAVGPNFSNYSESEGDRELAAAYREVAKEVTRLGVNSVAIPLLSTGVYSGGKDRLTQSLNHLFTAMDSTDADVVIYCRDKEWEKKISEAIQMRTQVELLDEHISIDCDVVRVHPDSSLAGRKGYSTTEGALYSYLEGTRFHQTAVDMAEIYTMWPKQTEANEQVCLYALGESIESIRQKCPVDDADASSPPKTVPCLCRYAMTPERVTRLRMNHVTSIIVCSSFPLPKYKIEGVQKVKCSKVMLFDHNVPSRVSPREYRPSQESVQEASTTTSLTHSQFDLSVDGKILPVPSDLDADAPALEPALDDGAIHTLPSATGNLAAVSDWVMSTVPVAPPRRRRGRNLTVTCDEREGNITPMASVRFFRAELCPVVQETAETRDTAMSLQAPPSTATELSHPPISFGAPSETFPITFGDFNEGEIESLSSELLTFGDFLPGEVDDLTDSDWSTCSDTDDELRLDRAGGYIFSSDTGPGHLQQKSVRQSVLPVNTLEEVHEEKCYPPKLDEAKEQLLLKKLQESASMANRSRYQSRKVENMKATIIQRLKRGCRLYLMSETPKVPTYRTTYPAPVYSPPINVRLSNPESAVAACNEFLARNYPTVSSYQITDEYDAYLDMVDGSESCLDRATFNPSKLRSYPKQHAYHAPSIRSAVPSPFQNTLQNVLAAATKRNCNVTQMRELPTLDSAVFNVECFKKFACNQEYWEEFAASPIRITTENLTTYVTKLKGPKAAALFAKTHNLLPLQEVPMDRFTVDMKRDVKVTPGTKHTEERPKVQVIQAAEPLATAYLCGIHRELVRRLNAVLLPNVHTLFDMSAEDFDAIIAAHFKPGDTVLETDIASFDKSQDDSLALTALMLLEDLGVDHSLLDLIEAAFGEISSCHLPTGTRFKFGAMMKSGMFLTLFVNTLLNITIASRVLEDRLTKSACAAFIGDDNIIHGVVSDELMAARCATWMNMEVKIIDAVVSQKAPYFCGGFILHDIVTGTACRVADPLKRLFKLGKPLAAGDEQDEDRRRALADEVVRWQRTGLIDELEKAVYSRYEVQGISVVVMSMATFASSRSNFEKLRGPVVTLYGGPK
An asterisk follows results filed as active; i = inactive; ? = inconclusive; & = joins results of further samples; [ ] = another dose, or the depositor's remark. On the % scale 0 is the no-effect control and ±100 the full control effect; potency means the concentration at half of the fitted maximal effect.

molecule | nsP2pro primary
CC(=O)O[C@H]1CC(C)(C)CC2[C@@]13[C@H](O)C[C@]1(C)[C@@]2(CCC2[C@@]4(C)CC[C@H](O[C@@H]5OC[C@H](O[C@@H]6O[C@H](CO)[C@@H](O)[C@H](O)[C@H]6O[C@@H]6OC[C@@H](O)[C@H](O)[C@H]6O)[C@H](O)[C@H]5O[C@@H]5O[C@H](CO)[C@@H](O)[C@H](O)[C@H]5O)C(C)(C)C4CC[C@]21C)O[C@@H]3O (stereo partly specified) | 2%[5.1 µM]
Cc1cc(C)c(NC(=O)C2CCN(c3nnc(C)c4c(C)n(-c5ccccc5)nc34)CC2)c(C)c1 | -18%
Cc1cccc(NC(=O)CCn2cnc3ccccc3c2=O)c1 | -6%
O=C(CCBr)N1CCN(C(=O)CCBr)CC1 | -5%
CC1CCC(NC(=O)C2(C)Cc3ccccc3C(=O)N2Cc2ccc(F)cc2)CC1 (stereo unspecified) | -23%
CCOc1ccc(Cc2nc(-c3c(C)nc4ccccn34)cs2)cc1 | 43%[activator]
N#Cc1ccccc1NC(=O)c1cnc(N2CCOCC2)c2ccccc12 | 6%
O=C(Cc1ccccc1)Nc1nnc(NC2CCN(c3nnc(NC(=O)Cc4ccccc4)s3)CC2)s1 | 34%[activator]
CC(NC(=O)CN1C(=O)NC2(CCS(=O)(=O)CC2)C1=O)c1ccccc1 (stereo unspecified) | i
O=[N+]([O-])c1cc(I)c(O)c(I)c1 | 32%[activator]
CCc1nn(C)c(C(=O)NCc2ccc(Oc3ccc(C)cc3)cc2)c1Cl | -5%
Cc1cc2c(s1)c1cnn(Cc3ccc4ccccc4c3)c(=O)c1n2C | -2%
COC1=CC(=O)C[C@@H](C)[C@]12Oc1cc(OC)cc(OC)c1C2=O | -1%
N#Cc1c(-c2ccc(C(F)(F)F)cc2)no[n+]1[O-] | 2%
CCC(C)(C#N)O[C@@H]1O[C@H](CO)[C@@H](O)[C@H](O)[C@H]1O (stereo partly specified) | -16%
C=C(F)c1sc(CNCCCNc2cc(=O)c3ccccc3[nH]2)c(C)c1Br | -22%
CN1CCN(C(=O)c2cccc(-c3ccc(CNc4ccc(N5CCN(C(=O)OC(C)(C)C)CC5)cc4)o3)c2)CC1 | i
CC(C)c1ccccc1OC(=O)NCCc1ccc2ccccc2c1 | -3%
CC(=O)c1cccc(NC(=O)C2=CC(c3ccco3)=NS(=O)(=O)N2C)c1 | -30%
CCCn1c(-c2ccc(F)cc2)nc2c(NCCCN3CCCCC3C)nc(C)nc21 (stereo unspecified) | -7%
O=C1Nc2ccccc2Oc2cc(Oc3ccc(Cl)cc3)ccc21 | -19%
O=C(O)c1cc(-c2cccc(CO)c2)cc(S(=O)(=O)NC2CCCC2)c1 | -5%
Cc1ccc(Cl)cc1NC(=O)N1CCN(C)c2ncccc21 | -21%
CC(C)(C)c1cc(-c2cc(-c3ccc(C(=O)O)cc3)ccc2OCCO)ccc1N1CCCC1 | 65%[activator]
C=C1CCC2C(C)(C)CCC[C@]2(C)[C@H]1CC/C(C)=C/C(=O)O (stereo partly specified) | -1%
Cc1cccc(CC(=O)N2CCc3c2ccc(-c2cn(C)c4ncnc(N)c24)c3F)n1 | -2%
COc1ccc(NC(=O)N2CCc3c(nc4cc(-c5ccccc5)[nH]n4c3=O)C2)c(OC)c1 | i
CCC(=O)N1CCc2cc(S(=O)(=O)NC(Cc3ccccc3)C(=O)O)ccc21 (stereo unspecified) | -11%
O=C1Nc2ccccc2/C1=C\c1cc(F)c(O)c(F)c1 | i
Cc1ccc(NC(=O)CN2C(=O)CCn3nc(-c4cccn4C)cc32)c(Cl)c1 | ?
CC(C)c1ccc(NC(=O)Cn2nnc(C(=O)NCc3ccc(Cl)cc3)c2N)cc1 | -15%
COc1ccc(-c2cc(C(C)=O)c(C)n2CCC(=O)Nc2cc(Cl)ccc2C)cc1 | -17%
CC1CCc2onc(C(=O)N3CCN(c4cccc(C(F)(F)F)c4)CC3)c2C1 (stereo unspecified) | -22%
C/C(=C\CCC(C)C1=CCC2(C)OC3=C(CC12)C(=O)C(O)CC3)CO (stereo unspecified) | 0%
Cc1c(C)c2c(c(C)c1OC(=O)CCC(=O)O)CC[C@@](C)(CCC[C@H](C)CCC[C@H](C)CCCC(C)C)O2 | -5%
Cc1cnc(-c2ccccc2C(C)O)nc1NCc1ccc(-c2cccnc2)cc1 (stereo unspecified) | i
CC(NC(=O)C1CCN(S(=O)(=O)c2ccccc2)CC1)c1ccccc1 (stereo unspecified) | -19%
CCOC(=O)O[C@]1(C(=O)COC(=O)CC)CC[C@H]2[C@@H]3CCC4=CC(=O)C=C[C@]4(C)[C@H]3[C@@H](O)C[C@@]21C | -2%
C=C[C@]1(C)C[C@H](O)[C@H]2C(=C)C(=O)O[C@@H]2[C@H]1C(=C)CO | ?
CN(C)CCN(C)[C@@H]1[C@H](O)[C@H](CO)O[C@@H]1CN(Cc1ccc(Cl)cc1)Cc1cccc(Cl)c1 | i
CCc1ccccc1NC(=O)Nc1c[nH]c(=O)[nH]c1=O | -29%
NC(=O)N1CCN(c2nc(-c3ccc(Br)cc3)cs2)CC1 | -5%
O=C(CCc1nc2ccccc2s1)N1CCC(c2noc(C3CC3)n2)C1 (stereo unspecified) | i
COc1ccc(CN2CC[C@H](c3nc(C)no3)[C@H](NC(=O)C3CC3)C2)cc1 | i
Cc1ccc(-c2nc(C)c(CCNS(=O)(=O)c3ccc(F)c(C(F)(F)F)c3)s2)cc1 | -22%
CCC(CC)C(=O)N1CCc2cc(OC)c(OC)cc2C1COc1ccc(C(=O)OC)cc1 (stereo unspecified) | -12%
CCOc1cc(C(=O)NCc2ccc3c(c2)CCN3C(=O)CC)cc(OCC)c1OCC | -7%
COC(O)(CC(C)C)C1Oc2cc(C)[nH]c(=O)c2O1 (stereo unspecified) | 8.8µM*
CC(=O)NC1=NN(C(C)=O)C(C)(c2ccccc2)S1 (stereo unspecified) | -11%
COc1cc(OC)nc(N2C[C@H]3OC(=O)N(Cc4ccccc4OC)[C@H]3C2)n1 | -1%

Given with each value named: entries from further up
SMILES: C=C[C@]1(C)C[C@H](O)[C@H]2C(=C)C(=O)O[C@@H]2[C@H]1C(=C)CO
  nsP2pro primary: ?

SMILES: CN1CCN(C(=O)c2cccc(-c3ccc(CNc4ccc(N5CCN(C(=O)OC(C)(C)C)CC5)cc4)o3)c2)CC1
  nsP2pro primary: i

SMILES: COC1=CC(=O)C[C@@H](C)[C@]12Oc1cc(OC)cc(OC)c1C2=O
  nsP2pro primary: -1%

SMILES: CC1CCC(NC(=O)C2(C)Cc3ccccc3C(=O)N2Cc2ccc(F)cc2)CC1 (stereo unspecified)
  nsP2pro primary: -23%

Following part:
molecule | nsP2pro primary
O=C(O)c1ccc(CN2CCC[C@H]2c2nc(-c3ccc(OC4CCCCC4)nc3)no2)cc1 | i
O=C(NC1CCc2nnc(C3CC3)n2CC1)c1cnco1 (stereo unspecified) | i
O=C(NCc1c[nH]c2ncccc12)c1cccnc1 | 3%[39.2 µM]
CN(C)CCCN(C(=O)c1ccc2c(c1)OCCO2)c1nc2ccccc2s1 | 10%
CC1CNc2c(cccc2S(=O)(=O)N[C@@H](CCCN=C(N)N)C(=O)N2CC[C@@H](C)C[C@@H]2C(=O)O)C1 (stereo partly specified) | -3%
O=C(c1ccc(Nc2nc3ccccc3n3nnnc23)cc1)N1CCN(c2cccc(C(F)(F)F)c2)CC1 | -22%
COc1ccc(S(=O)(=O)N2CCN(c3cccc(C)c3C)CC2)c2ccccc12 | -18%
O=C(NC1CCCCC1)O[C@@H]1CO[C@H]2[C@@H]1OC[C@@H]2n1nnnc1Sc1ncccn1 | 2%[39.2 µM]
Cc1ccc(OCCn2c(CCNC(=O)c3cccc(Cl)c3)nc3ccccc32)cc1 | i
Cc1nn(-c2ccccc2)c(OC(=O)c2ccccc2Cl)c1S(=O)(=O)c1ccccc1 | -22%
CC1CCN(C(=O)C[C@@H]2c3nc(NC(=O)CC(C)(C)C)sc3C[C@@H]3[C@](C)(CO)[C@H](O)CC[C@]32C)CC1 | 3%
Cc1cc(C)n(C(C)CC(=O)NCc2ccccc2C)n1 (stereo unspecified) | -16%
Cc1nnc(-c2cnn(C)c2N)n1CCCc1cccnc1 | i
Cc1cc2c(cc1C(=O)N[C@H](c1ccccn1)C1CC(O)C1)OCCO2 (stereo partly specified) | -1%
O=C(Nc1ccc(O)c2ncccc12)c1ccccc1F | i
Cc1ccc(S(=O)(=O)Nc2cc(C(=O)Nc3nc(-c4ccccc4)cs3)ccn2)cc1 | -3%
N#CC1(c2cccc(C(=O)Nc3cc(Oc4ccc5nc(NC(=O)C6CC6)sc5n4)ccc3F)c2Cl)CC1 | 29%
Cc1cncc(NC(=S)N2CCN(c3cccc(C(F)(F)F)c3)CC2)c1 | 0%
CC(=O)Nc1sc2c(c1-c1nc3ccccc3s1)CN(C(C)C)C2 | i
FC(F)(F)c1ccc(O[C@H]2COCCN(Cc3cccnc3)C2)nc1 | -26%[39.2 µM]
COc1ccccc1CCNC(=O)Cn1ccc2cc(S(=O)(=O)N3CCCCCC3)ccc21 | -18%
O=C(Cc1ccccc1)NC(c1ccco1)c1cc(Cl)c2cccnc2c1O (stereo unspecified) | i
O=C(OCC#CCSc1nnc(-c2ccccc2)o1)c1ccc(F)cc1 | -9%
O=C([C@@H]1CCCN(c2ccc3[nH]c(C4(n5cc(Cl)cn5)CC4)nc3n2)C1)N1CCCC1 | 16%
COc1cccc(CCC(=O)N2CCCC(CN3CCCC3)CC2)c1 (stereo unspecified) | -9%

(continued)
Compound	nsP2pro primary
O=C(Nc1ccc(Br)cc1)Nc1nnc(-c2ccncc2)s1	-7%
CNCC(=O)N1CCC(Cc2cccc(C(N)=O)c2)C1 (stereo unspecified)	2%
COc1ccc(C(=O)N2CCC(N3CCCC3=O)CC2)cc1	2%[39.2 µM]
CCCCNC(=O)C(CC)Sc1nc2ccccc2c(=O)n1Cc1ccco1 (stereo unspecified)	-17%
N#Cc1ccccc1Cn1c(=O)n(CCCCC(=O)NCc2ccc3c(c2)OCO3)c(=O)c2ccccc21	-2%
Cc1onc(C(=O)NCc2ccc3[nH]c(-c4ccc(F)cc4)c(C)c3c2)c1CO	-7%
O=C(CCc1cc2n(n1)CCNC2)NCc1nc2ccc(Cl)cc2[nH]1	i
CCOC(=O)N1CCc2c(sc(NCc3sccc3C)c2C(=O)Nc2ccccc2OCC)C1	-32%
COCCNC(=O)C1COC2(CCN(C(=O)C3CC3)CC2)N1C(=O)c1cccc(OC)c1 (stereo unspecified)	-12%
Cc1n[nH]c(C)c1CNC(=O)C1CCCCC(=O)N1 (stereo unspecified)	i
COc1ccccc1N1CCN(C(=O)c2cc3c(s2)-c2ccccc2OC3)CC1	-20%
Cc1cccc(CC(=O)NC2CC(=O)N(c3ccc4c(c3)OCCO4)C2)c1 (stereo unspecified)	-6%

A portion taken from the entries so far, as a working copy:
Compound	nsP2pro primary
COCCNC(=O)C1COC2(CCN(C(=O)C3CC3)CC2)N1C(=O)c1cccc(OC)c1 (stereo unspecified)	-12%
Cc1n[nH]c(C)c1CNC(=O)C1CCCCC(=O)N1 (stereo unspecified)	i
COc1ccccc1N1CCN(C(=O)c2cc3c(s2)-c2ccccc2OC3)CC1	-20%
Cc1cccc(CC(=O)NC2CC(=O)N(c3ccc4c(c3)OCCO4)C2)c1 (stereo unspecified)	-6%

Later entries
Compound	nsP2pro primary
CC(=O)Nc1sc2c(c1C(=O)c1ccccc1)CCN(C(C)C)C2	-13%
CCOC(=O)C1CCN(C(=O)C(C)(C)NC(=O)Nc2ccc(F)c(F)c2)CC1	i
O=C(Nc1ccccc1)c1ccccc1O	-9%&-5%
COC(=O)c1cc(C)nc2c1c(=O)nc(SCc1cccc(C)c1)n2C1CC1	-23%
CC1=CC2/C=C(\C)CC[C@@H](O)[C@@H](O)[C@@H]3O[C@@H]3C(=O)[C@]23C(=O)N[C@@H](CC(C)C)[C@@H]3[C@@H]1C (stereo partly specified)	-4%[10 µM]
CC(=O)N1CCN(C2CCNCC2)C(=O)C1	?
CC(=O)Nc1ccc(Nc2c(CCC(C)C)c(C)c(C#N)c3nc4ccccc4n23)cc1	-20%
Cc1ccc(CNC(=O)c2ccc(CS(=O)(=O)Cc3ccc(F)cc3)o2)cc1	-23%
CN1CCN(C(=O)c2cc(-c3cccnc3)nc3c2cnn3C)CC1	0%[39.2 µM]
COc1ccc(S(=O)(=O)NCCc2sc(-c3cccnc3)nc2C)cc1OC	-25%
CC(=O)N[C@H](Cc1ccc2ccccc2c1)C(=O)N[C@H](Cc1ccc(Cl)cc1)C(=O)N[C@H](Cc1cccnc1)C(=O)N[C@@H](CO)C(=O)N[C@@H](Cc1ccc(O)cc1)C(=O)N[C@H](CCCNC(N)=O)C(=O)N[C@@H](CC(C)C)C(=O)N[C@@H](CCCN=C(N)N)C(=O)N1CCC[C@H]1C(=O)N[C@H](C)C(N)=O	38%&39%[activator][10 µM]
NCCc1nc2cccnc2n1-c1ccccc1	18%
Cc1ccc2c(c1)c1c(c(=O)n(-c3cccc(Cl)c3)c(=O)n1CC(=O)NCC1CCCO1)n2C (stereo unspecified)	-18%
Cc1cc(C)n2ncc(C(=O)Nc3ccc(C(C)(C)C)cc3)c2n1	-5%
COC(=O)C1=CO[C@@H](O[C@@H]2O[C@H](CO)[C@@H](O)[C@H](O)[C@H]2O)[C@@H]2[C@@H](C(=O)O)CC[C@H]12	17%[10 µM]
OCCN1CCN(CC/C=C2/c3ccccc3Sc3ccc(Cl)cc32)CC1	33%[activator]
CCC(Cc1ccccc1)NC(=O)CCS(=O)(=O)c1cc2c(cc1Cl)NC(=O)CO2 (stereo unspecified)	-9%
Cc1ccc(-c2c(-c3nn(C)c4ncnc(N5CC[C@H](N6CCCCC6)C5)c34)cnn2C)cc1	-2%
COc1ccccc1OCCNC(=O)C1CCN(c2cc(C(F)(F)F)nc(C)n2)CC1	-5%
COC(=O)c1ccc2c(c1)S(=O)(=O)NC2=O	-2%

Assay outcomes from PubChem BioAssay.

An excerpt, so the mix of outcomes need not match the whole.
